Screens from PubChem.
ClpP mod = qHTS Assay for Activators of ClpP; purified B. subtilis ClpP, FRET peptide cleavage, 20 min; Potency, µM (top dose mostly 57.5 µM), for the others: at the highest dose activity change, negative = active; 340,000 compounds, 1.9% hits; AID 651965, 2013; active = well fitted falling curve with a large enough effect; inconclusive = small, poorly fitted or top-dose-only effect; inactive = no such curve, though single readings can be large or run the other way; also: potency is read from the fitted curve at half-maximal effect; the source files actives as falling curves though it sought activators and does not explain the sign; nearly all actives have a fitted effect of over 65% in size; many hits overshoot -100%
Target sequence (P80244 whole entry, looked up): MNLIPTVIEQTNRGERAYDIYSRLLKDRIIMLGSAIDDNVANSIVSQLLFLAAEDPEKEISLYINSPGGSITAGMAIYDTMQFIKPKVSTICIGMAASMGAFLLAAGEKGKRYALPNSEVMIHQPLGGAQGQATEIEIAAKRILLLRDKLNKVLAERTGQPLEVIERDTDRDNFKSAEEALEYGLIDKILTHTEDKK
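ClpP 10 microg/mL final, pH 8 Tris/KCl buffer with BSA, glycerol, Tween-20; compound pinned in; FRET-FV substrate; RT 20 min; Ex320/Em430; ΔFRET vs ADEP 5.8 microM, DMSO, no enzyme.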
gsp antagonist = gsp mutant antagonism; Potency, µM (top dose mostly 76.9 µM), without a hit: top-dose activity change, negative = inhibition, actives largely listed as inhibitors; gsp-mutant cells, cAMP HTRF, 30 min; control for the full effect not named in the record; AID 624288; 340,000 compounds, 0.4% hits; active = falling curve of any shape with a large fitted effect; inconclusive = falling curve, mostly with a smaller effect; inactive = flat or rising curve; cell line not stated here;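 also: intracellular cAMP measured with PDE inhibitor Ro 20-1724 present during compound exposure; potency is read from the fitted curve at half-maximal effect; % is scaled to controls: 0 for no effect and ±100 for the full control effect; nearly all actives have a fitted effect of over 65% in size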
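Cells, 2000/well, grown 16–24 h in DMEM 10% FBS with 0.5 mg/ml G418, then compounds plus […] (300 uM addition stock), 30 min at 37C. cAMP read by HTRF (cAMP-d2 and anti-cAMP antibody-K in lysis buffer) after 30 min RT.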
Sfp PPTase inh = Sfp phosphopantetheinyl transferase inhibition | Potency, µM, for inactives: max response, negative = inhibition, actives largely listed as inhibitors | Q9F4F7 | AID 1490 | 310,000 compounds, 3.5% hits | Biochemical Sfp PPTase activity, qHTS; active = well fitted inhibition curve with a large enough effect; inconclusive = small, poorly fitted or top-dose-only effect, or another doubt; inactive = no such curve, though single readings can be large or run the other way;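 also: the enzyme is Sfp with the accession as filed and its product quenches rhodamine fluorescence; potency is read from the fitted curve at half-maximal effect; 0% = enzyme reaction without inhibitor and -100% = no enzyme wells; top concentration of the series not given in the record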
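Reaction rates are the 30-min fluorescence difference (ex 525, em 598 nm) in wells containing 15 nM Sfp, 5 uM rhodamine-CoA and 12.5 uM BHQ-2-YbbR at pH 7.6 with 10 mM MgCl2.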
CtBP-E1A blk = blocks the CtBP interaction with E1A | 340,000 compounds, 0.49% hits | AlphaScreen GST-E1A/His-CtBP binding, 1536-well; active compounds read low; control for the full effect not named in the record | AID 651724 | activity change, % (concentration not given with the values); in the data active means activity change below about -65%; inconclusive means about -30% to -65%; inactive means above about -30%; also: % is scaled to controls: 0 for no effect and ±100 for the full control effect
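Steps: dispense buffer (Tris pH 8.0, NaCl 300 mM, TCEP 1 mM, BSA, Tween 20); add 5X protein mix (GST-E1A, His-CtBP, 125 nM each); pin 23 nL compound; 2 h at 37 °C, dark; add 5X beads (50 ug/mL); 1 h; read.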
gsp ag = gsp mutant agonism | gsp mutant cells, cAMP HTRF, 30 min; control for the full effect not named in the record | Potency, µM (highest dose often 76.9 µM), for inactives: at the highest dose activation (cAMP increase), hits mostly activators | 340,000 compounds, 0.13% hits; active = well fitted activation curve with a large enough effect; inconclusive = small, poorly fitted or top-dose-only effect, or another doubt; inactive = no such curve, though single readings can be large or run the other way; cell line not stated here;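 also: phosphodiesterase inhibitor Ro 20-1724 added with compounds to block cAMP breakdown; potency is read from the fitted curve at half-maximal effect; nearly all actives have a fitted effect of over 60% in size; about a fifth of the inactives were tested at one dose only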
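Cells in DMEM/10% FBS with G418 were pretreated with compounds in DMSO plus […] (300 uM stock) for 30 min at 37C. cAMP was measured by HTRF (cAMP-d2 plus anti-cAMP antibody-K) after 30 min at room temperature.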
Menin MLL FP FL = menin-MLL binding inhibition, fluorescein peptide. Fluorescence polarization, fluorescein-MLL peptide displacement from menin. FP activity change, % at 61.4 µM. 290,000 tested, under 10 active; inconclusive = falling polarisation curve, or a change in total fluorescence; inactive = total fluorescence flat and polarisation flat or rising; no compound was filed as active; the % refers to the polarisation; negative = inhibition;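 also: % of control where 0% means no effect; inhibitors lower the polarisation; unlabelled MLL peptide was the positive control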
TRPV1 potentiator = human TRPV1 potentiation | TRPV1-expressing cells, Fluo-8 calcium influx, capsaicin EC20 potentiation; host cell line not named in the record; control for the full effect not named in the record | AID 540277 | 320,000 compounds, 0.02% hits | potentiation, % at 8.33 µM | Q8NER1; active means potentiation above 80%; inconclusive means 30% to 80%; inactive means below 30%; also: 0% is about no effect
Target sequence (Q8NER1 whole entry, looked up): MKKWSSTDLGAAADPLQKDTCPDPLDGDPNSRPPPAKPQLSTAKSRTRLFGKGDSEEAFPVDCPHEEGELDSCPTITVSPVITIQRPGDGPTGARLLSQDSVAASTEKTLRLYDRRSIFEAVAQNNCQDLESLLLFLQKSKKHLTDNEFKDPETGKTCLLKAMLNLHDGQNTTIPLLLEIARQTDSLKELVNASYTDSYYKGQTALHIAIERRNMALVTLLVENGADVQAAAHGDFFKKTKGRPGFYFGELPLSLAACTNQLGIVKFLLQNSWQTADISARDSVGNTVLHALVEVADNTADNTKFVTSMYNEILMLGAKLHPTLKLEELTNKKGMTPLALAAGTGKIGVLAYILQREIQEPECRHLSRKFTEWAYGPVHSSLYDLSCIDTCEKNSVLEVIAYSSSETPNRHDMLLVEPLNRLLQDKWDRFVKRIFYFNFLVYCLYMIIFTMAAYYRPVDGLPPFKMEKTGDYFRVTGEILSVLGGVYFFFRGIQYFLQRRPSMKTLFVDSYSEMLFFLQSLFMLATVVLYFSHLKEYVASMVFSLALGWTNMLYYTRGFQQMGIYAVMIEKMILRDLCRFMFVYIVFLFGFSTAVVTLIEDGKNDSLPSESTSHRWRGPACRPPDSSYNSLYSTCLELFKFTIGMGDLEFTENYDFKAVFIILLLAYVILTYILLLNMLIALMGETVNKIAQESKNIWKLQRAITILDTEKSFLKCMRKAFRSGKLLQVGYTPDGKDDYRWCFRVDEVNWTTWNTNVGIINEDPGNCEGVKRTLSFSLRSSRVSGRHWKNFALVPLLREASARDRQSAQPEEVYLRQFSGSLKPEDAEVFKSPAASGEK
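Cells expressing TRPV1 were dye-loaded with Fluo-8 and read kinetically: 10 s baseline, 3 min after compound (agonist portion), then 2 min after EC20 capsaicin (allosteric enhancer portion). Calcium-bound dye fluorescence at 480/520 nm.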
An asterisk follows results filed as active; ? = inconclusive; nt = not tested or not shown; & = joins results of further samples; [ ] = remark or other dose.

SMILES	ClpP mod	gsp antagonist	Sfp PPTase inh	CtBP-E1A blk	gsp ag	Menin MLL FP FL	TRPV1 potentiator
c1ccc2c(c1)NC(CN1CCOCC1)CO2 (stereo not drawn)	-3.5%	0%	9%	2	-1%	-1.7	13
CC(=O)N1CCN(C(=O)COC(=O)COc2ccc(C#N)cc2)CC1	nt	3%	nt	4	-1%[15.4 µM]	nt	-3
CN1CCN(S(=O)(=O)c2ccc3c4c(cccc24)C(=O)N3)CC1	5.0%	8%	8%	-8	?	14	-5
CC1=NN(C(N)=S)C(=O)C1N=Nc1ccc([N+](=O)[O-])cc1 (stereo not drawn)	nt	-7%	1%	?	?	0.7	4
COc1ccc(CNC(=O)[C@@H](NC(=O)C2CCN(C(=O)[C@@H]3CCCN3C(=O)OC(C)(C)C)CC2)C(C)C)cc1	-0.9%	9%	25%	-2	nt	1.3	-6
C=CCC(C(=O)OC)(C(=O)OC)c1ccc(C(F)(F)F)cc1[N+](=O)[O-]	nt	12%	16%	-10	-3%[15.4 µM]	-1.2	-19
Cc1ccc(SCCCCN2CCOCC2)cc1	nt	9%	-1%	-4	-17%	0.6	5
Cc1cc(C(=O)Nc2nccs2)c2cc(F)ccc2n1	-1.3%	5%	23%	-15	-4%[15.4 µM]	0.8	?
CCN(CC)C(=S)NC(=O)c1cc(OC)c(OC)c(OC)c1	nt	4%	?	-1	12%	0.3	-6
CC(C)(C)NC(=O)NC(=O)COC(=O)c1cc(=O)[nH]c2ccccc12	-7.2%	7%	-5%	3	-9%	-0.3	6
COCCNC(=O)CCCn1c(=O)c2ccccc2n(Cc2cccc([N+](=O)[O-])c2)c1=O	-0.9%	-15%	14%	10	7%	2.5	-3
CCn1nc(C)c(CN2CCCC(CO)(Cc3cccc(Cl)c3)C2)c1C (stereo not drawn)	1.7%	10%	16%	-1	-1%	-0.2	26
Cc1cc(C)n2nc(SCCOc3ccccc3)nc2n1	-6.7%	-8%	4%	?	10%[15.4 µM]	-1.1	3
CC(C)Cc1nc(Nc2ccccc2C#N)c2nnn(Cc3ccccc3)c2n1	nt	-17%	-7%	5	-14%	-0.7	9
CC(C)Nc1nc(NNc2nc(Cl)nc(NC(C)(C)C)n2)nc(NC(C)C)n1	-1.5%	-6%	3%	nt	-27%	2.7	7

Some of the entries so far, as labelled records:
SMILES: Cc1cc(C(=O)Nc2nccs2)c2cc(F)ccc2n1
  ClpP mod = -1.3%	gsp antagonist = 5%	Sfp PPTase inh = 23%	CtBP-E1A blk = -15	gsp ag = -4%[15.4 µM]	Menin MLL FP FL = 0.8	TRPV1 potentiator = ?

SMILES: CCN(CC)C(=S)NC(=O)c1cc(OC)c(OC)c(OC)c1
  ClpP mod = nt	gsp antagonist = 4%	Sfp PPTase inh = ?	CtBP-E1A blk = -1	gsp ag = 12%	Menin MLL FP FL = 0.3	TRPV1 potentiator = -6

SMILES: CC(C)(C)NC(=O)NC(=O)COC(=O)c1cc(=O)[nH]c2ccccc12
  ClpP mod = -7.2%	gsp antagonist = 7%	Sfp PPTase inh = -5%	CtBP-E1A blk = 3	gsp ag = -9%	Menin MLL FP FL = -0.3	TRPV1 potentiator = 6

SMILES: COCCNC(=O)CCCn1c(=O)c2ccccc2n(Cc2cccc([N+](=O)[O-])c2)c1=O
  ClpP mod = -0.9%	gsp antagonist = -15%	Sfp PPTase inh = 14%	CtBP-E1A blk = 10	gsp ag = 7%	Menin MLL FP FL = 2.5	TRPV1 potentiator = -3

(more compounds)
SMILES	ClpP mod	gsp antagonist	Sfp PPTase inh	CtBP-E1A blk	gsp ag	Menin MLL FP FL	TRPV1 potentiator
CN(C)c1ccc(/C=C/C(=O)c2ccc3c(c2)OCO3)cc1	-0.9%	7%	nt	8	20%	nt	0
O=S(=O)(Nc1nc2ccccc2s1)c1ccc(Cl)nc1	-0.1%	?	20%	4	24%	-1.1	-1
CCC1CN(C(=O)NCc2ccc(F)cc2)c2ccccc2O1 (stereo not drawn)	-0.8%&-3.3%	-24%	29%	5	17%[15.4 µM]	-2.9	-16
Cc1ccc(S(=O)(=O)N2CCCC2)cc1C(=O)NCCN1CCOCC1	4.0%	6%	9%	-1	-23%	nt	-7
O=C(c1cc2cc(F)ccc2[nH]1)N(Cc1cccnc1)CC1CCCN(C2CCCCC2)C1 (stereo not drawn)	-4.5%	7%	11%	-4	-7%	nt	-1
Cc1c2cnn(-c3ccccc3)c(=O)c2c(C)n1CCCC(=O)N1CCN(C)CC1	-3.8%	-11%	-7%	-1	1%	1.0	-5
COc1cc(Cl)cc(NC(=O)CCN2CCN(C)CC2)c1	1.2%	5%	-15%	1	7%	-0.7	2
CCCCn1c(SCC(=O)Nc2ccc(C)c(S(=O)(=O)N3CCOCC3)c2)nnc1C(CC)N(C)C (stereo not drawn)	-1.3%	-12%	nt	0	-2%	nt	5
CCC(CC)=NNc1ccc([N+](=O)[O-])cc1[N+](=O)[O-]	nt	2%	9%	-6	-6%	-5.9	0
C/C(=N\OC(=O)c1ccccc1)c1c(C)nc2cc(C)ccn12	-1.3%	16%	7%	-4	-2%	?	-5
COc1ccc(OC)c(S(=O)(=O)N2CCC(C(=O)Nc3cccc(C)c3)CC2)c1	0.2%	-32%	2%	9	-17%	1.0	-4
COC(=O)c1cc(NC(=O)CN(C)Cc2ccccc2)cc(C(=O)OC)c1	nt	-10%	-10%	-27	-1%[15.4 µM]	2.1	-11
O=C(Nc1nnc(C(F)(F)F)s1)c1ccc(N2C(=O)C3C4C=CC(C4)C3C2=O)cc1 (stereo not drawn)	-6.1%	?	36%[activator]	7	-4%	-0.2	18
COc1ccc(OC)c(C(=O)c2c(C)oc3cc([N+](=O)[O-])c(O)c([N+](=O)[O-])c23)c1	nt	-13%	56µM*	-11	14%[15.4 µM]	3.3	nt
CCN(CC(=O)NC1CCS(=O)(=O)C1)S(=O)(=O)c1ccc(Br)cc1 (stereo not drawn)	2.0%	12%	nt	17	-2%[15.4 µM]	nt	nt
CCCN(Cc1cc2cccc(C)c2[nH]c1=O)S(C)(=O)=O	-17%	4%	7%	6	-7%	-1.9	3
CCN(CC)Cc1c(C(=O)N/N=C/c2cccc3ccccc23)nnn1-c1nonc1N	nt	-21%	-1%	-10	-6%[15.4 µM]	-3.4	-4
Nc1cnccc1C(=O)O	nt	8%	25µM*	1	19%	?	-9
O=C(Nc1cccc2ccccc12)NC1CCCCC1O (stereo not drawn)	4.2%	-5%	nt	nt	-88%[inhibitor]	nt	19
COc1cc(OC)cc(C(C)=O)c1	-8.1%	19%	12%	7	9%	6.2	0
Cc1ccc2c(CC(=O)N3CCOCC3)coc2c1	-1.8%	-10%	-2%	nt	-1%	-2.6	-24
COc1ccc(-n2c(=O)c3ccccc3n(CC(=O)c3ccccc3)c2=O)cc1OC	-1.6%	-12%	7%	nt	-18%	1.2	4
COC(=O)[C@@]12CCCN1[C@H](c1ccc(-c3ccc(C(C)=O)cc3)c(OC)c1)[C@H]1C(=O)N(C)C(=O)[C@H]12	-5.2%	-10%	nt	2	?	nt	-14
Cn1ccnc1SCC(=O)Nc1cccc(S(=O)(=O)N2CCCCC2)c1	nt	nt	11%	0	3%[15.4 µM]	-1.7	0
CCCc1nnc(NC(=O)CCC(=O)N2CCC(C)CC2)s1	2.0%	16%	2%	3	?	nt	0
Cc1csc(NC(=O)c2cc3c(s2)-c2ccccc2OC3)n1	5.3%	8%	?	21	0%	-2.4	8
CCOC(=O)CSc1nnc([C@H](Cc2ccccc2)NC(=O)OC(C)(C)C)o1	1.6%	-12%	0%	39	-14%	4.6	10
CC1=C(C(N)=O)C(c2ccc3c(c2)OCO3)n2nc(-c3cccc(C)c3)nc2N1 (stereo not drawn)	0.5%	-8%	1%	2	-3%	2.1	0
CC1CCC(C(C)C)C(OC(=O)Cn2c(-c3ccc(F)cc3)[n+](C)c3ccccc32)C1 (stereo not drawn)	-11%	8%	-9%	10	-2%[15.4 µM]	2.7	-5
CC(C(=O)c1ccccc1)n1c(N2CCOCC2)nc2c1c(=O)n(C)c(=O)n2C (stereo not drawn)	-2.2%	1%	8%	-7	24%	1.0	-10
COc1cc(NS(=O)(=O)c2ccc(NC(=O)c3ccc(S(=O)(=O)N4CCCCC4)cc3)cc2)ncn1	nt	-13%	-30%	-1	?	0.3	-8
CCOC(=O)[C@@H]1[C@H]2COc3ccccc3[C@@H]2N2C(=O)N(c3ccc(F)cc3)C(=O)[C@]12C	-1.2%	6%	nt	-1	?	nt	nt
COc1ccccc1NC(=O)NNC(=O)c1ccc2ccccc2c1O	?	5%	7%	0	26%	-0.4	10
CCCn1cnc2cc(NCc3ccccc3O)ccc21	-0.8%	1%	10%	nt	-12%	9.0	-3
Cn1cc(CNC(=O)c2cc(-c3ccc(Br)cc3)nc3ccccc23)cn1	nt	11%	12%	-22	-39%[inhibitor]	-2.0	24
CCOc1ccc(/C=C/C(=O)NC2CCCCC2)cc1	10%	6%	13%	-3	4%[15.4 µM]	-3.7	10
C/C(=C\c1ccc(Cl)cc1)C(=O)c1c(C)cc(C)[nH]c1=O	-3.2%	-11%	25%	-2	6%	5.6	15
C=CCn1c(COc2ccccc2)nnc1SC(C)C(=O)N/N=C/c1cc(Cl)ccc1O (stereo not drawn)	-1.6%	?	15%	?	-9%	14	4
O=C(c1ccc(CS(=O)c2cccc(Cl)c2)o1)N1CCCCCC1 (stereo not drawn)	nt	-8%	12%	4	-3%	nt	9
Cc1cc(C)n(CCCNC(=O)c2ccc(C)o2)n1	0.1%	21%	nt	5	-7%	nt	-3
CN(Cc1ccccc1Br)C(=O)CSc1nnnn1C1CC1	2.5%	2%	nt	nt	29%	nt	-12
CCOC(=O)/C=c1/s/c(=C\c2c(OC)ccc3ccccc23)c(=O)n1CC(=O)NCC1CCCO1 (stereo not drawn)	0.4%	13%	nt	0	-21%	nt	nt
CCN(CC)S(=O)(=O)c1ccc(C(=O)Nc2ccc3c(c2)OCCO3)cc1	0.3%	-8%	3%	6	-11%	0.2	?
CCOC(=O)c1cc(-c2csc(COc3ccccc3Cl)n2)on1	1.5%	2%	-21%	11	-1%[15.4 µM]	2.1	0
